Sa RN4220 lethal – kills Staphylococcus aureus RN4220. AID 1259311. S. aureus RN4220 growth, OD600, 16 h. actives 0.33% (n = 330,000). inhibition, % (test concentration not listed);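 active = z-score of -3 or lower and OD600 up to 0.18 on both plates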;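 note: plate controls were untreated cells for no effect and reference antibiotic for full effect; stock transfer was 100 nL into about 80 µL; one replicate is shown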
ugtP null kill – kills S. aureus RN4220 lacking UgtP | S. aureus RN4220 ugtP deletion, OD600 growth, 16 h; some inactives read as strong as hits | growth inhibition, % (test concentration not listed) | actives 0.54% (n = 330,000);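 active = z-score under -3 and OD600 up to 0.15 on both plates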;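 note: plate controls were untreated wells for no effect and antibiotic for full effect; wells of about 80 µL received 100 nL stock; the first replicate is given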
BJeLR viability – BJeLR cell viability loss | BJeLR (HRASV12) viability, CellTiter-Glo ATP luminescence, 48 h; reference of the scale not given here | AID 1554 | actives 0.17% (n = 300,000) | inhibition, % (test concentration not listed);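 active = replicate mean above 50%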;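 note: 50 nL library stock added to about 25 µL; numbers are from one replicate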
PrP UTR inh – suppresses PrP 5' UTR mRNA reporter expression | actives 0.35% (n = 340,000) | cell-based PrP 5' UTR mRNA reporter, plate reader | inhibition, % (test concentration not listed);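 active = every replicate at 50% or more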;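 note: 0 = median of the neutral control wells; tested in H4 reporter cells; numbers are from one replicate; inactives centre near -14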
Mtb hypoxia inh – reduces hypoxia-regulated biosensor signal in M. tuberculosis; M. tuberculosis hypoxia-regulated fluorescent reporter, fluorescence; fluorescence inhibition, % (concentration not given with the values); actives 0.1% (n = 300,000); AID 1159583;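 active = 35 to 45% if threefold the growth effect, above 45% if 1.5-fold the growth effect; inactive = the rest, general growth blockers included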;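 note: wells of about 50 µL received 100 nL stock; 0% = vehicle wells and 100% = reference inhibitor wells; whole bacteria with a GFP reporter of the hypoxia response; strong numbers were not always called active; many hits fall short of the cut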
Bead autofluor – counter-screen for toxin protease inhibitors: compound fluorescence; actives 3.1% (n = 360,000); compound autofluorescence counterscreen, microsphere flow cytometry; active compounds read high; AID 624483; fluorescence intensity (concentration not given with the values);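 active = at least 3 SD above the mean of all compounds, about 16000 in these data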;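 note: 100 nL of 1 mM stock went into each well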
Mtb hypoxia inh growth – further read-out of Mtb hypoxia inh, marked with its call; growth inhibition, %; measured here: M. tuberculosis growth (absorbance);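 0% = vehicle and 100% = reference antibiotic; read after six days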
The depositor's hits bear a star; . = not tested or not shown. No enrichment for hits; any-hit rate near 4%.

SMILES	Sa RN4220 lethal	ugtP null kill	BJeLR viability	PrP UTR inh	Mtb hypoxia inh	Mtb hypoxia inh growth	Bead autofluor
CC1CCCC(C)N1C(=O)c1cc2ncc(CCCl)cn2n1 (configuration not stated)	2.8	1	-7	-7	0	3	2549
CC1(C)CC(=O)C=C(c2cccc(CO)c2)C1	7.5	-1	.	-2	9	7	3763
NC(=S)NN=Cc1ccc(-c2ccc(Cl)c(Cl)c2)o1	-14	-27	.	.	.	.	.
Cn1ncc([N+](=O)[O-])c1C(=O)Nc1ccccc1	4.8	5	-3	-12	6	-3	4006
COC(=O)C1=C(O)CSC1=Nc1ccccc1	5.0	-1	-2	-12	.	.	4206
CCOc1ccc(NC(=O)CN(C)S(=O)(=O)c2cnc[nH]2)cc1	0.1	-14	2	-14	-6	-2	4319
CN1C=CC2=C(C#N)C(N)C(C#N)(C#N)C(c3ccccc3)C2C1 (configuration not stated)	3.9	-6	2	-13	10	5	3712
O=C(COC(=O)c1cccc(Cl)c1)NC(=O)NCc1ccccc1	1.6	-4	.	-4	-8	-2	4384
CCOc1ccc(NC(=O)c2ccc(NC(=O)CN3C(=O)C(=O)N(CC(C)C)C3=O)cc2)cc1	5.5	1	3	-14	-11	2	6660
CCOC(=O)c1c(NC(=O)CS(=O)(=O)c2cn(CC)c3ccccc23)sc2c1CCCC2	2.8	-11	6	-8	10	8	4579

Reprinted from the part before: 4 compounds; new compounds follow.
SMILES	Sa RN4220 lethal	ugtP null kill	BJeLR viability	PrP UTR inh	Mtb hypoxia inh	Mtb hypoxia inh growth	Bead autofluor
CN1C=CC2=C(C#N)C(N)C(C#N)(C#N)C(c3ccccc3)C2C1 (configuration not stated)	3.9	-6	2	-13	10	5	3712
O=C(COC(=O)c1cccc(Cl)c1)NC(=O)NCc1ccccc1	1.6	-4	.	-4	-8	-2	4384
CCOc1ccc(NC(=O)c2ccc(NC(=O)CN3C(=O)C(=O)N(CC(C)C)C3=O)cc2)cc1	5.5	1	3	-14	-11	2	6660
CCOC(=O)c1c(NC(=O)CS(=O)(=O)c2cn(CC)c3ccccc23)sc2c1CCCC2	2.8	-11	6	-8	10	8	4579
O=C(NC(=S)NCc1ccco1)c1ccc(Br)cc1	.	.	0	13	.	.	4158
COc1cccc(C(=O)Nc2nnc(SCC(=O)Nc3ccc(NC(C)=O)cc3)s2)c1	4.0	-9	-5	4	5	12	6087
COc1ccc(C=Cc2c(-c3ccc(OC)cc3)sc3ccc(N4CCOCC4)cc23)cc1	-0.6	8	.	.	0	20	.
COc1cc(C(=O)NCCC(=O)NC(C)C)cc(OC)c1OC	3.7	8	3	-47	-1	10	4420
CCOC(=O)c1ccc(NC(=O)c2nc(SC)ncc2Cl)cc1	3.7	11	1	-25	1	-5	2961
CCOc1ccccc1NC(=O)c1cccc(N2C(=O)CCC2=O)c1	1.4	4	-6	-9	6	2	3959
Cc1ccc(/C=[N+](\[O-])c2ccccc2C)o1	1.7	1	0	-8	1	-4	5490
Cc1cccc(C(=O)Nc2c(C(=O)N(C)C)cnn2-c2ccccc2)c1	-4.4	-1	-6	-7	-4	-5	2804
CCOc1ccc(S(=O)(=O)NCCC(=O)N2CCCCCCC2)cc1	8.3	2	-3	-11	8	7	5343
Cc1cccc(N2CCN(S(=O)(=O)c3ccc4c(c3)CCN4C(=O)CCC(=O)O)CC2C)c1 (configuration not stated)	-13	-5	-4	-9	7	9	5547
O=C(CSc1ccc2nnc(-c3ccccn3)n2n1)Nc1ccccc1F	1.1	3	3	-12	0	0	6041
COc1cc([N+](=O)[O-])cc(C=NNC(=O)C(C)Nc2cccc3ccccc23)c1O (configuration not stated)	7.0	-10	.	.	1	9	.
O=C(CSc1ccc(-c2ccc(-n3cccn3)cc2)nn1)Nc1ccc([N+](=O)[O-])cc1	4.0	-3	20	-25	4	2	4823
CC(=O)c1ccc(S(=O)(=O)N(CCCO)Cc2cc3cc(C)ccc3[nH]c2=O)cc1	0.0	13	-11	-7	3	7	3440
CC(C)Cc1nnc(NC(=O)CCC(=O)NC2CCCCCC2)s1	-0.5	-5	7	-10	6	13	5276
COc1c(S(=O)(=O)Nc2cccnc2)ccc(Cl)c1Cl	-1.9	1	5	-6	6	-4	3880
O=C(/C=C/c1cccc(O)c1)c1ccc(N2CCOCC2)cc1	7.3	7	-7	-61	-2	4	3874
CC[C@@]12C(=O)N(c3ccccc3)C(=O)N1C(c1ccc(Br)cc1)C1C(=O)N(C(C)(C)C)C(=O)C12 (some centres not stated)	5.5	1	.	.	-6	-13	.
CCN1C(=O)[C@@H]2Cc3c([nH]c4ccccc34)C(c3cc(OC)c(OC)c(OC)c3)N2C1=S (some centres not stated)	3.1	9	-1	-10	-4	-3	3171
Cc1cc(C(=O)Nc2ncc(C)s2)c2ccccc2n1	1.2	5	-18	-11	-4	10	3839
CCCCCc1ccc(OCCCC[n+]2cccc(C)c2)c(CCCCC)c1	.	.	9	-12	.	.	3469
Cc1ccc(CNC(=O)C(=O)NCCC2CCCCN2S(=O)(=O)c2ccc(C)cc2)cc1 (configuration not stated)	.	.	-3	-15	.	.	5415
COc1ccccc1-n1c(C)cc(SC)c(C(C)=O)c1=S	2.7	-4	2	-24	.	.	4972
CCc1nc(SCC(=O)OC(C)C)c2ccccc2n1	3.8	-2	-1	-12	1	-3	4722
N#Cc1cc(Oc2ccccc2)c(-n2nnc3ccccc32)cc1C#N	3.2	6	-12	-26	6	3	3809
O=C(NCCCc1ccccc1)C1CC(=O)N(c2ccc3c(c2)OCCO3)C1 (configuration not stated)	2.7	2	5	-16	-2	3	20162*
CCCn1nc(NC(=O)c2ccco2)c2cc3ccccc3nc21	3.4	6	-10	3	10	0	2569
CCC(C)NC(=O)CS(=O)Cc1nc(-c2cccc(C)c2)oc1C (configuration not stated)	-18	-6	-7	-12	-2	-4	6181
CCN(c1ccccc1)c1cc(C)nc2nc(C)nn12	1.0	2	-2	11	.	.	4240
COc1ccc(NC(=O)NC(C)c2ccccc2)cc1 (configuration not stated)	0.2	2	.	-32	4	14	5507

2 consecutive compounds from above, for reference:
SMILES	Sa RN4220 lethal	ugtP null kill	BJeLR viability	PrP UTR inh	Mtb hypoxia inh	Mtb hypoxia inh growth	Bead autofluor
CCN(c1ccccc1)c1cc(C)nc2nc(C)nn12	1.0	2	-2	11	.	.	4240
COc1ccc(NC(=O)NC(C)c2ccccc2)cc1 (configuration not stated)	0.2	2	.	-32	4	14	5507

The list continues.
SMILES	Sa RN4220 lethal	ugtP null kill	BJeLR viability	PrP UTR inh	Mtb hypoxia inh	Mtb hypoxia inh growth	Bead autofluor
CC1CCN(C(=O)c2ccc(N(C)S(C)(=O)=O)cc2)CC1	3.4	0	0	-17	.	.	2716
O=C(O)c1cccc(NC(=O)c2ccc3c(c2)C(=O)N(Cc2ccco2)C3=O)c1	.	.	0	-32	.	.	4245
COc1ccc(S(=O)(=O)n2nc(OC(=O)c3ccco3)cc2N)cc1	2.6	3	4	-14	8	4	3752
CCN(CC)c1ccc(NC(=O)c2ccccc2)cc1S(=O)(=O)Nc1ccccc1OC	1.8	5	-17	-23	4	1	1930
CCOn1c(=O)c(-c2ccccc2)[n+]([O-])c2ccccc21	1.8	5	-3	-8	9	-6	3467
CCOC(=O)c1c(C)n(C)c2ccc(O)c(CN(C)C)c12	-0.4	-11	-3	-20	-8	11	2493
COc1ccc(CC(NC(C)=O)C(=O)NC2CCN(S(=O)(=O)c3ccc(NC(C)=O)cc3)CC2)cc1 (configuration not stated)	0.3	0	1	7	3	1	4393
CCOC(=O)CSc1nnc(-c2ccoc2C)n1-c1ccc(OCC)cc1	-1.4	7	9	-16	.	.	2979
Cc1ccc(C)n1-c1ccc(C(=O)NCc2cccnc2)cc1	2.1	1	-26	-17	-2	-4	4588
COC(=O)c1ccc(C(=O)OC)c(NC(=O)CN(c2ccccc2)S(=O)(=O)N(C)C)c1	3.2	-8	-13	-4	-11	5	3428
COc1ccc2oc(C(=O)OCC(=O)N(C)Cc3ccccc3)c(C)c2c1	3.0	6	-2	-24	12	9	.
Cc1cccc(-c2nnc(NC(=O)c3ccco3)s2)c1	-3.7	-13	-3	-57	-7	-1	4936
COC(=O)/C(=C/Nc1cccc2ccccc12)[N+](=O)[O-]	1.7	2	-3	-3	20	7	10536
CCOC12NC(=O)CC(=O)N1C(c1ccccc1)=CS2 (configuration not stated)	0.4	8	.	-35	3	9	9320
O=C(c1ccc(NS(=O)(=O)c2ccc3[nH]c(=O)[nH]c3c2)cc1)N1CCN(c2ccccc2O)CC1	4.4	0	-5	-16	5	12	4116
O=C(Nc1ccccn1)C1(c2ccccc2)CCCC1	3.4	2	9	-39	0	-3	11000
O=C(NCc1ccc2c(c1)OCO2)Nc1ccc(Cl)cc1	1.7	11	12	-23	4	1	4562
Cc1ccc(S(=O)(=O)N2CCN(Cc3ccsc3)CC2)cc1	1.9	4	-4	-7	3	7	4945
COc1ccc(N=Nc2cc(-c3ccccc3)ccc2O)cc1	-11	52	-1	-25	-3	10	3073
COc1cc(/C=N/NC(=O)c2cccnc2)ccc1OCC(=O)Nc1ccccc1Cl	.	.	-1	-18	.	.	4199
O=C(CSc1ncnc2c1nnn2Cc1ccccc1)NC1CCCCC1	1.6	-5	-5	-10	5	6	5143
CN1CCN(c2ccc3c(c2)S(=O)(=O)c2ccccc2C3=O)CC1	7.1	5	-4	-53	17	11	4659
Cc1nn(-c2nccs2)c2c1C(=O)CC(C)(C)C2Br (configuration not stated)	1.6	14	.	5	3	-5	3740
C=CCn1c(SCC(=O)c2[nH]c(C)c(C(=O)OCC)c2C)nc2scc(-c3ccc(OC)c(OC)c3)c2c1=O	14	-14	-12	-9	6	5	2379
COc1cc(OC)c(C(=O)OC(C)C(=O)Nc2cccc(C(F)(F)F)c2)cc1OC (configuration not stated)	.	.	-11	-11	.	.	2427
C/C(=N\NS(=O)(=O)c1ccc(Br)cc1)c1ccc2c(c1)OCO2	.	.	5	-27	.	.	5632
CCn1c(=O)c(C(=O)CN2CCN(S(=O)(=O)c3ccc(C)cc3C)CC2)c(N)n(Cc2ccccc2)c1=O	-6.4	-20	-6	-11	-26	6	7727
CCOc1ccc(C(C)NC(=O)c2cccs2)cc1OCC (configuration not stated)	-1.0	9	2	.	2	4	.
O=C(NCCCN1CCCC1=O)c1cccc(Oc2ccccc2)c1	2.8	9	10	-15	3	-5	2726
CN1C(=O)/C(=C/c2ccc(OCc3ccc(F)cc3)cc2)N(C)C1=S	9.4	-3	4	-13	.	.	.
Cc1cc(S(=O)(=O)n2ccnc2)c(Cl)cc1Cl	2.7	1	3	-22	2	1	2604
CC(C)Oc1ccc(S(=O)(=O)N2CCOCC2)cc1NC(=O)c1ccc(N2CCCC2=O)cc1	-4.0	-9	-5	-28	-5	4	5389
COc1cccc(CN2CCN(Cc3ccc4c(NC(C)=O)cccc4n3)CC2CCO)c1 (configuration not stated)	-3.2	-3	-3	-10	-3	3	3888
COC(=O)c1cccc(NC(=S)Nc2ccccc2Cl)c1	2.8	0	0	-8	0	0	5810
COc1cccc(-c2coc3cc4oc(=O)c(CCC(=O)O)c(C)c4cc23)c1	2.3	-18	1	-14	11	5	3743
CCc1ccc(NC(=O)c2cnccn2)cc1	4.8	3	1	-23	9	23	3492
COc1ccc(C(=O)NC(=S)Nc2ccc(CN3CCOCC3)cc2)cc1OC	1.9	42	-10	.	5	0	.
CCOc1ccc(CNC(=O)Cn2c(=O)c3cccn3c3ccccc32)cc1	2.6	5	12	-6	15	0	5557
CC12CCC(C(=O)Nc3cc(Cl)ccc3Cl)(C(Br)C1=O)C2(C)C (configuration not stated)	9.8	-11	10	-7	2	20	2419
COCc1n[nH]c(=S)n1-c1ccccc1	11	3	-3	-17	.	.	3524
Cc1cc(C)c(NC(=S)N2CCC(N(C)CC3CCCO3)CC2)c(C)c1 (configuration not stated)	-1.6	-3	11	.	6	3	12905
CC(OC(=O)c1n[nH]c2ccccc12)C(=O)NC1CCCCC1C (configuration not stated)	2.8	8	.	-9	-3	-6	6748
Cc1ccccc1C1c2[nH]c3ccccc3c2C[C@H]2C(=O)N(c3ccccc3C(=O)NCCN3CCOCC3)C(=O)N12 (some centres not stated)	-1.8	-13	-5	2	.	.	4367
COc1cccc(NC(=O)c2cnsn2)c1	5.5	4	9	-12	19	8	17160*
CCCCn1c(SCC(=O)NC2CC2)nnc1-c1ccncc1	0.6	4	-9	-25	4	5	3596
CCOc1ccc(CC(=O)NCc2ccc3c(c2)cc(C)n3C)cc1	-12	-3	-4	-21	8	6	2221

Bioassay records from PubChem BioAssay.
